Assay outcomes: PubChem, National Center for Advancing Translational Sciences (NCATS)
TRPML1 agonist – qHTS for Agonists of the Human Mucolipin Transient Receptor Potential 1 (TRPML1); Mucolipin-1 (Homo sapiens), Q9GZU1; TRPML1-expressing cells, Ca2+ dye fluorescence, FDSS; host cell line not named in the record; reference of the full effect not given here; hit rate 0.12% among 410,000; activation, % (concentration not given with the values); AID 624414, 2012; in the data active = activation above about 50%; inconclusive = about 30% to 50%; inactive = below about 30%; also: 0% is about no effect; the text of the record puts the active cut at 80%
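Agonist activity was taken from a 110 s kinetic Ca2+ dye read on the FDSS after pinning compounds onto TRPML1-DL cells. The cells were seeded at 1,500/well with Tet inducer, incubated about 16 h, then dye-loaded at room temperature.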
CtBP-E1A inh – qHTS Assay for Inhibitors of the CtBP/E1A Interaction | CtBP / adenovirus E1A interaction (AlphaScreen) | AlphaScreen GST-E1A/His-CtBP binding, 1536-well; hits give low values; control for the full effect not named in the record | activity change, % (test concentration not listed) | hit rate 0.49% among 340,000 | AID 651724, 2012; in the data active means activity change below about -65%; inconclusive means about -30% to -65%; inactive means above about -30%; also: % is scaled to controls: 0 for no effect and ±100 for the full control effect; compound concentration not given in the record
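AlphaScreen with 125 nM GST-E1A and 125 nM His-CtBP (5X stocks) in Tris pH 8.0, 300 mM NaCl, BSA, Tween 20, TCEP. Compounds preincubated 2 h at 37 deg C, then glutathione donor/nickel acceptor beads added for 1 h at 37 deg C in dark.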
PINK1 expr mod – A Quantitative High throughput Screen to Identify Chemical Modulators of PINK1 Expression | PINK1 immunofluorescence, high-content cytometry, 24 h | Potency, µM (doses to about 76.6 µM), inactives show at the highest dose activation (PINK1 increase), most hits filed as activators | hit rate 0.2% among 410,000; active = well fitted activation curve with a large enough effect; inconclusive = small, poorly fitted or top-dose-only effect; inactive = flat fitted curve, though single readings scatter; cell line not stated here;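 also: potency is read from the fitted curve at half-maximal effect; % of control where 0% means no effect; nearly all actives have a fitted effect of over 65% in size; a mitochondrial uncoupler was the plate control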
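Measures PINK1 amount and localization on or inside mitochondria by immunofluorescence. Stable cells get compounds at 5 concentrations for 24 hours before fixation and staining; CCCP controls included.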
D2 PAM – Beta-Arrestin HTS for Positive Allosteric Modulators of the Human D2 Dopamine Receptor: Potentiators. D(2) dopamine receptor (Homo sapiens), P14416. DiscoveRx D2 beta-arrestin cells, luminescence, 90 min; 100% = 57 uM dopamine signal. potentiation, % (test concentration not listed). hit rate 0.23% among 360,000. AID 624464, 2012; active = potentiation of 50% or more; inconclusive = 30% to 50%; inactive = 30% or less;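 also: compound concentration not given in the record; tested on top of an EC20 dose of dopamine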
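PathHunter D2 cells, attached overnight at 37 deg C, received compound in DMSO plus dopamine at EC20 (50 nM final) for 90 min at 37 deg C. Beta-arrestin recruitment was read as luminescence after 1 h with detection reagent at ambient temperature.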
D2 agonist – Beta-Arrestin HTS for Positive Allosteric Modulators of the Human D2 Dopamine Receptor: Agonists | DiscoveRx PathHunter D2 beta-arrestin, luminescence, 90 min; 100% = 57 uM dopamine signal | activation, % (test concentration not listed) | D(2) dopamine receptor (Homo sapiens), P14416 | hit rate 0.084% among 360,000; in the data active = activation above about 40%; inconclusive = about 15% to 40%; inactive = below about 15%; also: compound concentration not given in the record; the text of the record calls up to 30% inactive
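Agonist mode: compounds alone added to overnight-plated D2 PathHunter cells for 90 min at 37 C, with 57 uM final dopamine (EC100) defining full response. Beta-arrestin recruitment detected by chemiluminescent reagent, read after 1 h at ambient temperature.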
Six1-Eya2 blk – qHTS Assay for Inhibitors of the Six1/Eya2 Interaction; Homeobox protein SIX1 (Homo sapiens) + Protein phosphatase EYA2 (Homo sapiens), …; AlphaScreen GST-Six1/His-Eya2 binding, biochemical; hits give low values; control for the full effect not named in the record; activity change, % (concentration not given with the values); hit rate 0.56% among 360,000; AID 651725, 2012; in the data active = activity change below about -65%; inconclusive = about -30% to -65%; inactive = above about -30%; also: % is scaled to controls: 0 for no effect and ±100 for the full control effect
Target sequence (O00167 whole entry, looked up): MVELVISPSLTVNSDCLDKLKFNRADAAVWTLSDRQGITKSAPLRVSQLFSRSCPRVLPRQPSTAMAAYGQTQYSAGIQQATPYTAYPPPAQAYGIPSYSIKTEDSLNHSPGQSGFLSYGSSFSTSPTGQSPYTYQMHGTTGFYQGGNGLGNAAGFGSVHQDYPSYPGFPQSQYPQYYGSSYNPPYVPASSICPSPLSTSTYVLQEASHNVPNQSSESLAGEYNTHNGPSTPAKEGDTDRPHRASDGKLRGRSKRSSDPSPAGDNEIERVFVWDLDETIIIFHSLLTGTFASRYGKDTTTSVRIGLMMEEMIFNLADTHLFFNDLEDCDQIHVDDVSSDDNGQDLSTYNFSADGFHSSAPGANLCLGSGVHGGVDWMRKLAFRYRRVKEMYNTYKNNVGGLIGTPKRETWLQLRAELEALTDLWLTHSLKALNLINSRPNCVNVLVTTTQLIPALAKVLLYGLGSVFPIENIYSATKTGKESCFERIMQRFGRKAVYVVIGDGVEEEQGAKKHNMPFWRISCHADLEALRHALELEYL
Target sequence (Q15475 whole entry, looked up): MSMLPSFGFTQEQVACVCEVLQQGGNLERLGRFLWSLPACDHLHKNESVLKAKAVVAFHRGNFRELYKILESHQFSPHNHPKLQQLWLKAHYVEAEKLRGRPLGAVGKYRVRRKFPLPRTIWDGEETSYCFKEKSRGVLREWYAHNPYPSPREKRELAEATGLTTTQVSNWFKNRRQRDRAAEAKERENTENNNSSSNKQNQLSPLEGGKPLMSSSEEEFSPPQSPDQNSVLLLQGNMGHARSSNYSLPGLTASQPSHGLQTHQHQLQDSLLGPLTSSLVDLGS
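Homogeneous AlphaScreen proximity assay pairing GST-Six1 with His-tagged Eya2 (added as 5X mix: 250 nM and 500 nM) in 50 mM Tris pH 8.0, 300 mM NaCl, 1 mM TCEP. Glutathione donor and nickel acceptor beads; 1 h, 37 °C, dark.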
* hit, by the source's call; ? = inconclusive; · = no result given; & = joins results of further samples; [ ] = dose if it differs, or a comment.

The line under a structure holds: D2 PAM, Six1-Eya2 blk, PINK1 expr mod, D2 agonist, CtBP-E1A inh, TRPML1 agonist
COc1ccccc1CN(Cc1nc2ccccc2c(=O)[nH]1)S(=O)(=O)c1ccc(C)cc1
  -5, 2, -5.5%[38.3 µM], -0.8, 2, -0.2
CCN(CC)CCCCCOc1ccccc1OC
  -14, 5, ?, -2.7, 1, 1.2
COc1ccc(Cn2nnnc2CN2CCN(c3ccc(OC)cc3)CC2)cc1
  -9, -10, -1.0%, 1.0, -8, 0.0
CCOc1ccccc1CNS(=O)(=O)c1ccc2c(c1)C(C)(C)C(=O)N2C
  7, 3, 1.8%&-0.6%, 1.9, 2, -1.1&2.6
CCOc1cccc(-c2cc(=O)[nH][nH]2)c1
  -10, 1, 1.3%, -7.8, -23, -1.3
COc1ccc(C2C(C(=O)Nc3cc(C)on3)c3ccccc3C(=O)N2C)cc1 (stereo not drawn)
  -15, -1, -2.1%, -1.1, 2, 2.4
CN(C)S(=O)(=O)c1ccc(NC(=O)N2CCN(c3cccc(C(F)(F)F)c3)CC2)cc1
  -15, -6, 4.2%, 2.5, -3, 1.7
COC(=O)c1ccc(NC(=O)Cn2nnc(-c3cccs3)n2)cc1
  -3, 3, 1.3%, -4.5, ·, 0.6
O=c1onc(-c2ccccc2)c2ccccc12
  12, -1, -0.3%, 0.5, ·, 1.5
Cc1c(NC(=O)c2cc(Br)ccc2Cl)cccc1-n1cnnn1
  -2, -3, 0.9%, -2.8, 4, -0.1
O=C(O)C1CCCCC1C(=O)Nc1ccc2c(c1)OCCO2 (stereo not drawn)
  -6, 0, 28%[38.3 µM], 0.0, 7, 0.3
C/C(=N\NC(=O)c1cccc(S(=O)(=O)N2CCCC2)c1)c1ccc(F)cc1
  -4, -4, -0.7%, -2.8, 8, -0.4
Cc1cccnc1NC(=O)c1cccc(NC(=O)CC2SC(N3CCCCC3)=NC2=O)c1 (stereo not drawn)
  -10, 7, 0.4%, 1.7, 10, 1.2
N=C1C(c2nc3ccccc3[nH]2)=C(O)CN1c1ccc(F)cc1
  -7, -3, 10%, -0.1, 1, -0.3
Cc1ccccc1-c1nc(CS(=O)(=O)CC(=O)N2CCCCC2)c(C)o1
  -9, -21, -0.1%, -0.7, -15, 0.9
NS(=O)(=O)c1ccc(CCNC(=O)CN2CCN(c3ccccc3O)CC2)cc1
  -3, 7, 0.0%, 7.1, ·, 0.2
Fc1ccc(CN2CCN(c3ncnc4scc(-c5ccccc5)c34)CC2)cc1
  -7, -29, 14%, -3.5, -6, 1.7
COc1ccc2occ(C(=O)c3cccs3)c2c1
  -13, 20, 5.1%, -0.3, 6, 2.1
CC1(C)C(=O)OC(/C=C\c2cccc([N+](=O)[O-])c2)C(C)(C)C1=O (stereo not drawn)
  -5, 5, 2.8%, 2.0, 1, 0.0
COc1ccc(/C=N/NC(=O)CCc2c(C)n[nH]c2C)cc1OC
  8, -11, -1.8%, 1.0, -10, -0.3
Cc1ccc(-n2ccnc2SCC(=O)N(CC(C)C)C2CCS(=O)(=O)C2)c(C)c1 (stereo not drawn)
  12, -1, -2.1%, -1.1, 4, 0.8
Cn1nccc1-c1ccc(C(=O)Nc2cccc(NS(C)(=O)=O)c2)c2occc12
  -4, ?, 0.2%, 6.1, ?, -0.8
Cc1cc(C)c2c(c1)c1nnc(SCCN3CCOCC3)nc1n2C
  -8, -23, 2.0%, -3.0, ·, 1.0
CC(=O)Nc1ccc2nc(NC(=O)CS(=O)(=O)c3ccccc3)sc2c1
  -15, ?, -0.5%, 0.0, -15, -0.3
CCOc1nc(Nc2ccccc2)nc(OCC)n1
  0, 2, -0.9%, 5.0, ·, 2.2
Cc1ccc(C)c(CSc2nnc(-c3cccnc3)n2N)c1
  -13, 3, 1.5%, -0.6, -7, 0.5
Cc1cc(C)n2nc(C(=O)NC3CCCc4ccccc43)nc2n1 (stereo not drawn)
  -3, ?, 1.3%, 0.5, -9, 0.0
N#CC(=C(O)COC(=O)CCC1CCCCC1)c1nc2ccccc2[nH]1
  1, -5, 11%, 0.9, -3, 0.6
CCOC(=O)N1CCN(C(=O)COc2ccc(S(=O)(=O)NCC(C)C)cc2C)CC1
  6, 2, 1.2%[38.3 µM], -1.1, 8, 0.4
CN(CC(=O)NCc1ccccn1)S(=O)(=O)c1cc(Cl)ccc1Cl
  -18, -1, 2.4%, -4.0, -6, 0.0

Part of the list above in another layout.
SMILES	D2 PAM	Six1-Eya2 blk	PINK1 expr mod	D2 agonist	CtBP-E1A inh	TRPML1 agonist
CC1(C)C(=O)OC(/C=C\c2cccc([N+](=O)[O-])c2)C(C)(C)C1=O (stereo not drawn)	-5	5	2.8%	2.0	1	0.0
COc1ccc(/C=N/NC(=O)CCc2c(C)n[nH]c2C)cc1OC	8	-11	-1.8%	1.0	-10	-0.3

(cont.)
The line under a structure holds: D2 PAM, Six1-Eya2 blk, PINK1 expr mod, D2 agonist, CtBP-E1A inh, TRPML1 agonist
Cc1cccn2c(=O)c3cc(C#N)c(=NC(=O)c4cccnc4)n(CC4CCCO4)c3nc12 (stereo not drawn)
  9, -5, 2.7%, -5.2, 5, -2.0
Cc1sc2nc(NCCO)[nH]c(=O)c2c1C
  -10, 0, -1.1%, -3.5, 0, -0.4
CCOc1ccccc1C1CC(c2ccc(Cl)cc2)Nc2nc(N)nn21 (stereo not drawn)
  -5, -1, 2.2%, -4.0, -6, 1.4
CC1CCCC(NC(=O)c2ccc3c(SCC(=O)O)c4c(nc3c2)CCC4)C1C (stereo not drawn)
  -10, 3, 1.6%, 0.3, ·, 0.1
CCn1c(SCc2cccc(C(=O)O)c2)nnc1-c1ccccc1
  -7, 116, 0.5%, -2.9, -1, -0.1
Cc1ccc(S(=O)(=O)NCCCCCC(N)=O)cc1
  3, 0, -1.0%, -4.1, 4, -0.5
COc1ccc(C(=O)Nc2ccccc2C(=O)N2CCOCC2)cc1Br
  -6, -9, 2.2%, -9.7, 3, 0.1
CCN1CCN(C(=O)c2ccccc2NS(=O)(=O)c2ccc(Cl)cc2)CC1
  -17, 7, 0.7%, -7.3, 8, -1.2
Cc1nc(NC(=O)c2cc3ccccc3o2)sc1C
  -2, 1, 6.6%, -5.2, -4, -0.1
COc1ccc(NC(=O)N2C[C@H]3CON(C)[C@H]3C[C@H]2c2ccc(N3CCCCC3)cc2)cc1
  -6, -3, 0.1%, -5.1, 0, 0.1
O=C(NCc1cccnc1)/C(=C\c1ccc(-c2cccc(Cl)c2)o1)S(=O)(=O)c1ccccc1
  -30, 5, -2.2%, -5.7, 31, 0.3
CCCCn1c(O)c(N=NC(=O)c2ccccc2NS(=O)(=O)c2cccs2)c2ccccc21
  -1, -20, 14%, -3.8, -16, 0.2
COc1ccccc1Nc1nc(N)nc(CSC(=S)N2CCC(C)CC2)n1
  -4, -7, 0.7%, 1.3, -4, 4.6
NC(=O)[C@H]1CC2(CC(c3cccc(NC(=O)CC(c4ccccc4)c4ccccc4)c3)=NO2)CN1C(=O)c1ccccc1C(=O)c1ccccc1 (stereo partly drawn)
  -2, -7, 1.5%, 1.4, -4, 0.7
CC(NC(=O)CCNC(=O)c1ccc(Br)cc1)c1ccc(S(N)(=O)=O)cc1 (stereo not drawn)
  -4, -3, -0.3%, -3.2, -13, 1.0
O=C(c1ccc(S(=O)(=O)NCc2ccco2)cc1)N1CCN(Cc2ccccc2F)CC1
  -2, -5, -1.6%, -5.7, -5, 0.3
Cc1ccc2[nH]c3c(=O)n(CC(=O)NCCCN(C)Cc4ccccc4)ncc3c2c1
  -11, -2, 0.7%, 0.2, ·, -0.1
CNC(=S)N/N=C(\C)c1ccccc1
  -7, 6, 1.7%, -2.1, 0, -0.6
Cc1nc(Cl)sc1C(=O)Nc1ccccc1
  5, -3, 1.9%, -9.2, 5, 0.1
CCC(C(=O)O/N=C(\N)c1ccc(C)cc1)c1ccccc1 (stereo not drawn)
  -31, 37, 5.4%, -5.5, 29, 0.9
COC(=O)C1=CN(CCOC23CC4CC(CC(C4)C2)C3)C=C(C(=O)OC)C1c1ccsc1
  -9, 50, 6.6%, 2.8, 56, 0.0
CC(C)(C)NC(=O)NC(=O)COC(=O)c1ccco1
  -2, 11, -1.1%, -1.7, 6, 0.5
COc1ccc(NC(=O)c2cc(Br)ccc2Cl)c([N+](=O)[O-])c1
  7, -3, 4.6%, 7.2, -5, 1.7
O=C(NCCN1C(=O)C2C3C=CC(C3)C2C1=O)Nc1ccc(Br)cc1 (stereo not drawn)
  -2, 1, 0.9%, -1.9, -1, -0.2
COc1cc(OC)cc(C2=Cc3ccccc3C(CC(C)=O)N2c2ccc(C#CCCO)cc2)c1 (stereo not drawn)
  ·, 3, 0.3%, ·, 11, -0.8
CC(C)(C)NC(=O)C(c1ccncc1)N(Cc1cccs1)C(=O)Cn1nnc(-c2cccs2)n1 (stereo not drawn)
  1, 2, -0.9%[38.3 µM], -1.0, 0, 0.4
CCCCn1c(N)c(N(CC)C(=O)c2cccc(OCc3ccccc3)c2)c(=O)[nH]c1=O
  5, -5, 0.3%, 8.0, ·, -0.2
O=C(C1CCN(c2nnnn2-c2ccccc2)CC1)N1CCN(c2ccccc2)CC1
  6, -1, 0.7%[38.3 µM], 0.4, 3, 1.1
O=C(Nc1cccc2ccccc12)C1CCCC1
  -3, 0, 1.0%, -1.9, 11, -0.2
Cc1cccc(C)c1NC(=O)C(Cl)C(=O)c1ccccc1 (stereo not drawn)
  -13, -1, 0.5%, -4.7, 3, 1.5

Next section.
The line under a structure holds: D2 PAM, Six1-Eya2 blk, PINK1 expr mod, D2 agonist, CtBP-E1A inh, TRPML1 agonist
Cc1cnc(NC(=O)c2cccs2)s1
  -4, 0, 1.3%, -3.0, -10, 0.5
Cc1cccc(C)c1-n1nnnc1SCc1nc(N)nc(N(C)C)n1
  3, 0, 11%, 4.6, -10, 1.8
CC(=O)Nc1cccc(-c2ccnc3c2CC(C(=O)Nc2ccc(C(C)C)cc2)O3)c1 (stereo not drawn)
  -5, -3, -0.4%, -3.4, -2, 0.1
CCCn1c(SCc2cc(=O)[nH]c3ccccc23)nc2c1c(=O)n(C)c(=O)n2C
  -1, 3, -1.6%, -0.8, -1, 0.0
CCN(Cc1ccccc1)S(=O)(=O)c1ccc(C(=O)N(CCCN(C)C)c2nc3cc(OC)ccc3s2)cc1
  -8, ?, -1.8%, 1.9, ?, -0.5
O=[N+]([O-])c1ccc(N2CCOCC2)nc1
  6, 2, 1.3%[38.3 µM], -1.6, 1, -0.4
CCn1c(SCC(=O)NNC(=O)c2ccc(C)cc2)nnc1-c1ccncc1
  -7, -2, 0.7%, -5.0, 1, -0.1
CC(=O)N(CC1CCCO1)c1nnc(-c2cnccn2)s1 (stereo not drawn)
  2, 8, 2.8%, 4.5, -2, -0.5
O=S(=O)(NCC1CCCO1)c1ccc(Cl)cc1 (stereo not drawn)
  7, 10, 0.4%, -1.6, ·, ·
